Sa RN4220 lethal: S. aureus RN4220 growth inhibition | OD600, 16 h | inhibition, % (no concentration beside the values) | actives 0.33% (n = 330,000);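 active = z-score of -3 or lower and OD600 up to 0.18 on both plates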;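 also: plate controls were untreated cells for no effect and reference antibiotic for full effect; stock transfer was 100 nL into about 80 µL; one replicate is shown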
Sa ugtP lethal: kills S. aureus RN4220 lacking UgtP. S. aureus RN4220 ugtP deletion, OD600 growth, 16 h; some inactives read as strong as hits. growth inhibition, % (test concentration not listed). actives 0.54% (n = 330,000). AID 1259309;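 active = z-score under -3 and OD600 up to 0.15 on both plates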;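 also: plate controls were untreated wells for no effect and antibiotic for full effect; wells of about 80 µL received 100 nL stock; the first replicate is given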
PrP 5UTR inh: suppresses PrP 5' UTR mRNA reporter expression; actives 0.35% (n = 340,000); AID 488862; cell-based PrP 5' UTR mRNA reporter, plate reader; inhibition, % (concentration not given with the values);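 active = every replicate at 50% or more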;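 also: 0 = median of the neutral control wells; tested in H4 reporter cells; numbers are from one replicate; inactives centre near -14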
BJeLR lethal: kills HRASV12-expressing BJeLR cells. BJeLR (HRASV12) viability, CellTiter-Glo ATP luminescence, 48 h; reference of the scale not given here. inhibition, % (no concentration beside the values). actives 0.17% (n = 300,000);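 active = replicate mean above 50%; inconclusive = above 50% but judged a plate artefact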;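 also: 50 nL library stock added to about 25 µL; numbers are from one replicate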
Autofluor counter: compound fluorescence in toxin protease inhibitor counterscreen; compound autofluorescence counterscreen, microsphere flow cytometry; hits give high values; fluorescence intensity (test concentration not listed); actives 3.1% (n = 360,000); AID 624483;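 active = at least 3 SD above the mean of all compounds, about 16000 in these data; inconclusive = too few beads counted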;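 also: 100 nL of 1 mM stock went into each well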
Mtb hypoxia inh: Mtb hypoxia fluorescent reporter inhibition. M. tuberculosis hypoxia-regulated fluorescent reporter, fluorescence. fluorescence inhibition, % (no concentration beside the values). actives 0.1% (n = 300,000);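 active = 35 to 45% if threefold the growth effect, above 45% if 1.5-fold the growth effect; inactive = the rest, general growth blockers included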;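 also: wells of about 50 µL received 100 nL stock; 0% = vehicle wells and 100% = reference inhibitor wells; whole bacteria with a GFP reporter of the hypoxia response; strong numbers were not always called active; many hits fall short of the cut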
Mtb hypoxia inh growth: recorded beside Mtb hypoxia inh, whose call it bears; growth inhibition, %; measured here: M. tuberculosis growth (absorbance);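 0% = vehicle and 100% = reference antibiotic; read after six days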
The depositor's hits bear a star; u = inconclusive; x = not tested or not shown.

Values run as follows: Sa RN4220 lethal	Sa ugtP lethal	PrP 5UTR inh	BJeLR lethal	Autofluor counter	Mtb hypoxia inh	Mtb hypoxia inh growth
CCC(=NNC(=O)c1ccc2c(c1)nc(C)n2CC)c1cc(F)ccc1O
 : 5.0	-5	25	x	3907	8	10
CCC(=O)Nc1sc2c(c1C(N)=O)CCN(Cc1ccccc1)C2
 : -11	-5	-8	0	6099	13	10
CN(Cc1nc(-c2cccnc2)no1)S(=O)(=O)c1ccc(Br)cc1
 : -10	-3	-20	-4	2468	9	10
COc1ccc(CCNC(=O)CN(C)S(=O)(=O)c2ccc3c(c2)CCC(=O)N3)cc1OC
 : 6.4	8	13	-1	5514	9	5
C=CCn1c(Cc2ccccc2)nc2c(cnn2-c2ccccc2)c1=O
 : -1.8	5	-43	-5	3840	x	x
Clc1ccc2nc(CN3CCCCC3)cn2c1
 : 4.1	4	-34	-10	10502	16	6
O=C(CCCN1CCc2[nH]c3ccc(F)cc3c2C1)c1ccc(F)cc1
 : x	x	-12	-1	2921	x	x
CCCCCCCCC(=O)NCCOc1ccccc1
 : 2.0	-1	-25	-27	8161	-8	-1
CC1CCc2sc(C(=O)N/N=C/C3CCCCC3)cc2C1 (configuration not stated)
 : x	x	2	1	2597	x	x
CC(=O)N/N=C(\C)c1ccc(Br)cc1Br
 : x	x	-34	6	4302	x	x
Cc1ccc(/C=N/NC(=O)c2sccc2OCc2ccc(F)cc2)cc1
 : x	x	-90	24	3082	x	x
COc1ccccc1-c1cc(N)n(S(=O)(=O)c2cccc3nsnc23)n1
 : 2.4	-3	-5	-6	3559	15	7
O=C(Cn1cc(C(F)(F)F)ccc1=O)N1CCN(S(=O)(=O)c2ccc(Cl)cc2)CC1
 : -0.8	-3	-15	2	3987	x	x
CSCCC(NC(=O)NCCC1=CCCCC1)C(=O)O (configuration not stated)
 : 2.5	4	x	x	x	8	9
Cc1nc2ccsc2c(=O)n1-c1cccc(Cl)c1
 : 5.4	9	-13	0	4550	-8	4
CN(CC(=O)Nc1ccccc1Br)C(=O)CNC(=O)C1CCCCC1
 : 2.4	4	-13	x	x	10	11
COc1ccccc1C(CNC(=O)c1cc(S(=O)(=O)N2CCOCC2)ccc1C)N1CCCC1 (configuration not stated)
 : 4.3	4	-2	x	7204	-2	6
C=CCn1c(SCC(=O)N2CCc3ccccc3C2)nc2sc(C)c(C)c2c1=O
 : -1.5	-14	-6	-10	2597	-3	7
Cc1cccc(NC(=O)CSCC(=O)N2CCCc3ccccc32)c1
 : 2.1	2	-3	2	u	5	6
Cc1cc(=O)n(Cc2ccc(OC(C)C)cc2)c(=S)[nH]1
 : 0.5	7	-1	-8	3623	-2	-9
COC(=O)c1ccccc1NC(=O)c1cc2sccc2n1C
 : 1.3	-4	8	-22	10969	3	8
O=C(Nc1ccc(Br)cc1)c1cccc(N2C(=O)CCC2=O)c1
 : 0.6	8	-34	1	5646	4	5
Cc1cc(Br)ccc1N=C1NC(=O)CS1
 : 6.8	6	-25	14	3938	-10	-9
CN1/C(=C\C(=O)c2ccco2)c2ccccc2CC1(C)C
 : 3.7	2	-19	1	12936	18	7
OCC1CCCN1C(=S)Nc1ccccc1 (configuration not stated)
 : 5.0	11	-29	-12	8173	7	5
COc1ccc(C2C3=C(CC(C)(C)CC3=O)Nc3c2c(=O)n(C)c(=O)n3C)cc1OC (configuration not stated)
 : -0.3	1	-14	-1	4232	-1	14
O=C(Nc1ccccc1)N1CCC(n2c(=O)[nH]c3ccccc32)CC1
 : -15	4	-6	3	4249	0	0
CC(C)(C)C1=C(C#N)C(c2cccnc2)C(C#N)=C(N)O1 (configuration not stated)
 : 4.2	-4	-14	-18	2318	0	2
O=C(NCC(=O)N(Cc1cccs1)C(C(=O)NC1CCCCC1)c1ccncc1)c1ccco1 (configuration not stated)
 : -1.9	-3	1	19	4435	-7	4
Cc1oc(-c2cccc(Cl)c2)nc1CN1CCC(C(=O)N2CCN(c3ccccc3F)CC2)CC1
 : 1.6	-22	-2	1	4701	-7	10
COc1ccc(Nc2nc(=O)c3cc([N+](=O)[O-])ccc3s2)cc1
 : 2.5	-2	-40	3	4692	7	0
Fc1ccccc1Cc1noc(CN2CCN(c3ccc(Cl)cn3)CC2)n1
 : 12	3	-6	7	3486	17	7
CCN(CC)CCCNC(=O)C1c2ccccc2Oc2ccccc21
 : -1.8	-4	-9	9	5036	x	x
CCCCOc1ccc(C(=O)N(Cc2ccccc2)C2CCS(=O)(=O)C2)cc1 (configuration not stated)
 : 0.3	4	-20	-2	6409	12	1
CCCCN(C)C(=O)c1ccc(S(=O)(=O)N2CCOCC2)cc1
 : -0.8	2	-27	6	4730	x	x
COc1ccc(NC(=O)c2ccc3c(c2)S(=O)(=O)N=C2CCCCCN23)cc1S(N)(=O)=O
 : 1.7	5	-10	x	3441	6	10
COc1ccc(C(=O)C(C)[n+]2ccc(-c3nnc4n3CCCCC4)cc2)cc1 (configuration not stated)
 : 2.0	5	x	-11	7017	-5	3
COc1ccccc1NC1(C#N)CCCCC1
 : -5.2	-8	-23	-3	2093	5	4
COc1ccc(/C=C/C(=O)c2cc(F)ccc2OC(=O)c2ccccc2)cc1OC
 : 5.6	-4	1	26	2402	3	3
Cc1ccc(CS(=O)Cc2ccc(C(=O)N3CCN(C4CCCCC4)CC3)o2)cc1 (configuration not stated)
 : -4.5	15	-7	5	5678	2	9
CC1(C)CC(=O)C2=C(C1)N(Cc1cccnc1)C(=O)C2(NC(=O)c1ccc(F)cc1)C(F)(F)F (configuration not stated)
 : 4.7	10	0	-3	3119	9	8
CN(C)C1=NCCN1CCC1CCCC1
 : 1.1	-15	-41	-16	4218	3	0
CC1CCN(CCCNC(=O)COc2cc(=O)n(C)c3ccccc23)CC1
 : 1.7	3	-19	6	u	5	0
CC(=O)c1cccc(NC(=O)C2CCN(C(=O)c3ccc([N+](=O)[O-])cc3)CC2)c1
 : 4.6	-1	-7	3	2061	1	7
COc1ccc(C(c2c(N)[nH]c(=S)[nH]c2=O)c2c(N)[nH]c(=S)[nH]c2=O)cc1
 : 3.5	2	-25	0	3704	4	-5
Cn1cc(CN2CCCCC2C(=O)Nc2ccc(-n3cccn3)cc2)cn1 (configuration not stated)
 : 3.3	13	-9	-3	3798	6	-7
CC(C)CCn1nnnc1C(c1ccc(F)cc1)N1CCC(C(N)=O)CC1 (configuration not stated)
 : 0.8	4	0	-2	4259	x	x
CC(=NNC(=O)Cn1nc(C)c([N+](=O)[O-])c1C)c1ccco1
 : 3.3	2	x	x	x	4	-5
CCC(=NNC(=O)c1ccccc1Cl)c1ccc(Br)s1
 : 5.2	4	x	x	x	8	0
O=C(NC1CC2CCC1C2)C1CCN(S(=O)(=O)c2ccc(-c3nn[nH]n3)cc2)CC1 (configuration not stated)
 : 6.8	-4	-21	6	3476	12	8
CCOC(=O)CSc1nnc(-c2cc(OC)c(OC)c(OC)c2)o1
 : 6.3	6	-12	3	4643	14	8
Cc1nc(-c2cccnc2)sc1C(=O)Nc1cccc(C(F)(F)F)c1
 : 2.6	-8	-9	-3	22572*	2	8
CN1CCN(C(=S)NC(=O)/C=C/c2ccccc2Cl)CC1
 : 7.4	-2	-22	2	4794	10	-6
O=[N+]([O-])c1cc(F)c(N2CCCC2)cc1Br
 : 13	-3	-20	-9	2234	7	4
CC(=O)N1CCSc2ccc(S(=O)(=O)NCc3ccc(F)cc3)cc21
 : 6.9	0	-8	-6	6044	1	10
O=S(=O)(Nc1ccc(S(=O)(=O)N2CCCC2)cc1)c1ccccc1Br
 : 2.5	-3	-24	x	7853	6	7
COc1ccc(Br)cc1C(=O)Nc1ccccc1-c1ccccc1
 : -12	-5	-7	2	28074*	-5	14
Cc1cc(Cl)ccc1NC(=O)CCC(=O)N/N=C/c1cc([N+](=O)[O-])ccc1O
 : x	x	-8	4	2079	x	x
CCOc1ccccc1C(=S)NC1CCCCC1
 : 1.9	-1	-25	-2	3786	19	1
NC(=O)C1CCN(C(=O)c2cccc3ccccc23)CC1
 : 2.5	2	-7	-2	3527	6	9

Carrying on:
Values run as follows: Sa RN4220 lethal	Sa ugtP lethal	PrP 5UTR inh	BJeLR lethal	Autofluor counter	Mtb hypoxia inh	Mtb hypoxia inh growth
COc1ccccc1C1=NOC(Cn2c(NCCOCCO)nc3c2c(=O)n(C)c(=O)n3C)C1 (configuration not stated)
 : 5.5	-2	-15	-15	4290	10	1
O=C(Cn1cc(CNC(=O)C2CCCCC2)nn1)Nc1cc(C(F)(F)F)ccc1Cl
 : -2.7	2	-8	x	3570	6	3
Cc1ccccc1NC(=O)c1ccc2c(O)c(S(=O)(=O)c3ccccc3)c(=O)[nH]c2c1
 : -0.9	4	-23	-20	5532	11	5
COc1ccc(OC)c(C2C(C(=O)Nc3nc4ccccc4s3)=C(C)NC3=C2C(=O)CCC3)c1 (configuration not stated)
 : -6.5	-6	-21	-3	3542	2	7
CCCOc1ccc(C(C)(O)CN2CCOCC2)cc1 (configuration not stated)
 : -0.3	-2	-18	1	2419	x	x
COc1ccc2nc3c(nc2c1)CCCC3
 : 5.1	6	-50	-3	4085	17	8
Cc1ccc(S(=O)(=O)N2CCN(C(=O)c3cc(S(=O)(=O)N4CCOCC4)ccc3F)CC2)cc1
 : -4.9	-5	-5	x	2956	-4	-6
Cc1nc2scc(C)n2c(=O)c1S(=O)(=O)NCCc1ccc(Cl)cc1
 : 3.5	-3	-16	0	3735	12	2
COc1ccc(C(=O)NCCN2CCCC2)cc1OC
 : 0.2	6	1	-7	4278	6	4
Cc1ccc2cc(CN(CC(C)C)S(=O)(=O)c3ccccc3)c(=O)[nH]c2c1
 : 0.1	-10	-7	-10	6728	-11	-7
Cc1cc(OCC(=O)Nc2ccc(N3CCN(C)CC3)cc2)ccc1Cl
 : 1.5	21	-43	-4	5765	9	6
O=C(NCCc1ccc(Cl)cc1)C1CCC(=O)N(C2CCCCCC2)C1 (configuration not stated)
 : 1.9	3	-10	3	5228	2	2
O=C(N/N=C/c1cc(Cl)ccc1O)c1ccccc1Br
 : x	x	3	7	3127	x	x
CCOC(=O)C1Oc2ccccc2C(c2ccc(OC)cc2)=C1C(=O)OC (configuration not stated)
 : 4.4	34	7	x	3376	0	6
CC1(C)CC(CCNC(=O)c2ccco2)CC(C)(C)N1
 : 1.8	11	-26	-4	6124	5	2
CC1(C)CC(=O)C=C(N2CCCC2)C1
 : 1.5	1	-10	0	5938	0	3
COC(=O)c1cc(C(=O)NCCC(C)C)cc([N+](=O)[O-])c1
 : 3.6	6	-5	4	2241	12	7
CCn1ncc(/C=C/C(=O)c2ccccc2)c1C
 : 6.7	-3	-85	-1	9242	1	21
O=C(Cc1ccc(Cl)cc1)N1CCN(c2ccc(F)cc2)CC1
 : -1.8	-2	-23	-6	4277	6	18
COc1cccc(C(=O)CSc2nnc(COc3cccc4cccnc34)o2)c1
 : 4.4	-15	2	-1	11327	9	9
Nc1ccc2oc(-c3cccs3)nc2c1
 : 7.9	-8	-86	-1	3642	9	14
CC(NC(=O)CN1C(=O)COc2ccccc21)c1ccccc1 (configuration not stated)
 : 1.8	3	-18	2	10184	4	3
CCc1cccc(C)c1NC(=O)CN1C(=O)NC(CCc2ccccc2)C1=O (configuration not stated)
 : 2.0	-1	-29	x	3944	2	1
COc1cccc(-n2nnc3c(=O)n(Cc4ccc(Cl)cc4)cnc32)c1
 : -0.6	-14	-20	-1	21157*	-1	5
Cc1cc(C(F)(F)F)n2nc(-c3cnn(C)c3C(F)(F)F)cc2n1
 : 3.8	7	-21	2	9870	10	8
COCCCn1c(N)c(C(=O)Nc2sc3c(c2C(=O)OC)CCCC3)c2nc3ccccc3nc21
 : -7.7	8	-14	-14	11968	0	6
Cc1ccc(S(=O)(=O)NN=Cc2ccc3nccnc3c2)cc1
 : 8.3	-1	x	x	x	11	2

Two entries from above, as labelled records.
CCCOc1ccc(C(C)(O)CN2CCOCC2)cc1 (configuration not stated)
  Sa RN4220 lethal: -0.3 | Sa ugtP lethal: -2 | PrP 5UTR inh: -18 | BJeLR lethal: 1 | Autofluor counter: 2419 | Mtb hypoxia inh: x | Mtb hypoxia inh growth: x

COc1ccc2nc3c(nc2c1)CCCC3
  Sa RN4220 lethal: 5.1 | Sa ugtP lethal: 6 | PrP 5UTR inh: -50 | BJeLR lethal: -3 | Autofluor counter: 4085 | Mtb hypoxia inh: 17 | Mtb hypoxia inh growth: 8

Screening results from PubChem BioAssay.
